N370S GC mod: qHTS Assay for Inhibitors and Activators of N370S glucocerebrosidase as a Potential Chaperone Treatment of Gaucher Disease; Lysosomal acid glucosylceramidase (Homo sapiens), P04062; N370S GC spleen homogenate, 4MU-glucoside fluorescence; Potency, µM (highest dose often 59.4 µM), without a hit: at the highest dose activity change, negative = inhibition, most hits filed as inhibitors; 330,000 tested, 0.092% active;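 also: 0% = full enzyme activity and -100% = no enzyme basal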
TDP1 block: qHTS Assay for Inhibitors of Tyrosyl-DNA Phosphodiesterase (TDP1); recombinant TDP1, AlphaScreen DNA substrate cleavage; Potency, µM (top dose mostly 130 µM), for inactives: top-dose activity change, negative = inhibition, most hits filed as inhibitors; 350,000 tested, 0.28% active; also: nearly all actives have a fitted effect of over 40% in size
Target sequence (Q9NUW8 whole entry, looked up): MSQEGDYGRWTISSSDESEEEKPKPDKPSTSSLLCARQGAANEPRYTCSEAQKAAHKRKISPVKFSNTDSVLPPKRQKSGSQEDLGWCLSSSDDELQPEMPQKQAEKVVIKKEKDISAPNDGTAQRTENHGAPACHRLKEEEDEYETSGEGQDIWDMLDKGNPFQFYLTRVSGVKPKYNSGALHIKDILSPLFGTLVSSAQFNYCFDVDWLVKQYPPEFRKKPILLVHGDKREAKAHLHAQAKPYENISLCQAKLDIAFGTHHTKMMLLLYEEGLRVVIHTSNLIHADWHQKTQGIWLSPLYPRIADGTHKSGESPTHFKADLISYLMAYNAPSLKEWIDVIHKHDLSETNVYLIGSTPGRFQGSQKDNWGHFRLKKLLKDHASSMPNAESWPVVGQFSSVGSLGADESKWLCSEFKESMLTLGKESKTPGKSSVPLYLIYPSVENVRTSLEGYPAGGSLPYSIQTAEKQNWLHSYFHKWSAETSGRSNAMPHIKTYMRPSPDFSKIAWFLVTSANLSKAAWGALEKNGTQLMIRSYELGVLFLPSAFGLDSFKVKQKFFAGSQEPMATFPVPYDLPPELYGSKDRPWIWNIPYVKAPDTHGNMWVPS
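Signal: AlphaScreen proximity between streptavidin donor and anti-FITC acceptor beads on intact substrate. Reaction: Tdp1 1 nM, substrate 15 nM final, 5 min RT after 15 min compound preincubation.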
Starred values were filed as active, the others as inactive; & = joins results of further samples; [ ] = another dose, or the depositor's remark. Calls follow the shape of the dose curve; as a rule, active = well fitted curve in the direction sought with a large enough effect; inconclusive = small, poorly fitted or top-dose-only effect, or another doubt; inactive = no such curve, though single readings can be large; an effect the other way counts as inactive or inconclusive. Unless noted, % is scaled to controls: 0 for no effect and ±100 for the full control effect; potency is read from the fitted curve at half-maximal effect.

Screening CC1(C)C(C=C(Cl)Cl)C1C(=O)N(Cc1cccc(Cl)c1)C1CCS(=O)(=O)C1 (centres undefined) returned N370S GC mod -12% and TDP1 block 0%.
For C[C@@H]1CCC2[C@](C)(CO)C(O)CC[C@@]2(C)[C@@]12CC[C@](CO)(CCO)O2 (some centres undefined) the results were N370S GC mod 3% and TDP1 block 2%.
CCOC(=O)N1CCN(c2c(NCCCN3CCCCCC3)c(=O)c2=O)CC1 was read as N370S GC mod 1% and TDP1 block 3%.
c1cc(-c2cccs2)nc(-c2cccs2)c1 was read as N370S GC mod 2%.
`O=S(=O)(c1ccccc1Br)N(Cc1ccccc1)Cc1ccco1` gave N370S GC mod 13% and TDP1 block 8%.
For COc1ccc(/C=C2\CCc3c2nc2ccccc2c3C(=O)O)cc1OC the results were N370S GC mod -8% and TDP1 block -12%.
NC(=O)COC(=O)CC12CC3CC(CC(Br)(C3)C1)C2 was read as N370S GC mod -7% and TDP1 block 3%.
`Cc1ccc(NC(=O)/C=C/c2cccc([N+](=O)[O-])c2)nc1` gave N370S GC mod -4% and TDP1 block 2%.
COc1ccc(S(=O)(=O)N(C)c2ccccc2)c2cccnc12 was read as N370S GC mod -13% and TDP1 block 4%.
For O=[N+]([O-])c1ccc(SCc2ccncc2)nc1 the results were N370S GC mod -10%.
Screening O=C(COC(=O)CCSc1ccccc1)NCc1ccc(F)cc1 returned N370S GC mod -1% and TDP1 block -2%.
Screening O=S1(=O)NC[C@]23C[C@H](c4ccc(F)cc4)[C@@H](C[C@@H]21)O3 returned N370S GC mod 6%.
For CCc1cc(CNC(=O)CC2C(=O)NCCN2Cc2ccc(-c3ccccc3)cc2)on1 (centres undefined) the results were N370S GC mod -9% and TDP1 block 5%.
Screening O=C(c1cc(Cl)nc2ccccc12)N1CCN(S(=O)(=O)c2cccc(F)c2)CC1 returned N370S GC mod 5%.
`CCOc1ccccc1C(=O)Nc1nnc(C(C)C)s1` gave N370S GC mod 1% and TDP1 block 4%.
Screening O=C(CSc1nc(-c2ccccc2Cl)ns1)Nc1ccc2c(c1)OCO2 returned N370S GC mod 11% and TDP1 block -2%.
For Cc1ccccc1CN1C[C@@H]2C[C@@H](c3cn[nH]c3-c3ccccc3)N3CCC[C@@]23C1=O the results were N370S GC mod -18% and TDP1 block 3%.
For CSc1ncc(C(=O)Nc2ccc(C(C)=O)cc2)c(-c2ccccc2)n1 the results were N370S GC mod 8% and TDP1 block 6%.
O=C(NCC1CCCO1)c1ccc(Oc2ccc([N+](=O)[O-])cc2Cl)cc1 (centres undefined) was read as N370S GC mod -6% and TDP1 block 0%.
For NC(=NC1CCCCC1)c1ccc([N+](=O)[O-])cc1 the results were N370S GC mod -1% and TDP1 block 7%.

Copied from above (4 entries):
For Cc1ccccc1CN1C[C@@H]2C[C@@H](c3cn[nH]c3-c3ccccc3)N3CCC[C@@]23C1=O the results were N370S GC mod -18% and TDP1 block 3%.
For CSc1ncc(C(=O)Nc2ccc(C(C)=O)cc2)c(-c2ccccc2)n1 the results were N370S GC mod 8% and TDP1 block 6%.
O=C(NCC1CCCO1)c1ccc(Oc2ccc([N+](=O)[O-])cc2Cl)cc1 (centres undefined) was read as N370S GC mod -6% and TDP1 block 0%.
For NC(=NC1CCCCC1)c1ccc([N+](=O)[O-])cc1 the results were N370S GC mod -1% and TDP1 block 7%.

(next part)
`O=C(CSc1nnc(CNc2ccccc2)o1)N1CCN(C(=O)c2ccco2)CC1` gave N370S GC mod -8% and TDP1 block -2%.
Screening COc1cc2c(cc1OC)C(COc1ccc(C(C)C)cc1)NCC2 (centres undefined) returned N370S GC mod -17% and TDP1 block 3%.
For CCOC(=O)N1CCC2(CC1)C(C#N)=C(N)Oc1c2c(C)nn1-c1cccc(Cl)c1 the results were N370S GC mod -10% and TDP1 block 9%.
O=C(CN1C(=O)c2ccccc2C1=O)c1ccc(F)cc1 was read as N370S GC mod -10%.
Cc1nc(C)c(C(=O)N2CCCC(C(=O)c3ccc4ccccc4c3)C2)s1 (centres undefined) was read as N370S GC mod 2% and TDP1 block 6%[56.1 µM].
Screening COc1cccc(CNC(=O)CCNS(=O)(=O)c2ccc3c(c2)CC(C)N3C(C)=O)c1 (centres undefined) returned N370S GC mod 0% and TDP1 block 0%.
`CCCCC(=O)Nc1nnc(S(=O)(=O)N2CCCc3ccccc32)s1` gave N370S GC mod 2%.
For O=C(O)CCSCCCN1C(=O)c2cccc3cccc(c23)C1=O the results were N370S GC mod 5% and TDP1 block 2%.
Screening COC(=O)CNC(=O)c1ccc(NS(=O)(=O)c2cc([N+](=O)[O-])ccc2Cl)cc1 returned N370S GC mod 1% and TDP1 block 0%.
For CC(C)c1ccc(NC(=O)C2CCN(S(C)(=O)=O)CC2)cc1 the results were N370S GC mod 0% and TDP1 block 6%.
Screening CCc1nc(SCC(=O)N2c3ccccc3CC2C)c2c(C)c(C)sc2n1 (centres undefined) returned N370S GC mod 18% and TDP1 block 1%.
Screening COc1ccc(/C=N/NC(=O)CC(=O)NCCc2ccccc2)cc1OC returned N370S GC mod 2% and TDP1 block 5%.
O=C(CN1C(=O)C2CC=CCC2C1=O)NC1CCCc2ccccc21 (centres undefined) was read as N370S GC mod -13% and TDP1 block 2%.
For Cc1ccc(OCC(=O)Nc2ccccc2[N+](=O)[O-])c(Br)c1 the results were N370S GC mod 11% and TDP1 block 6%.
`COc1ccccc1NC(=O)Nn1cnnc1` gave N370S GC mod -7% and TDP1 block 4%.
For CC(=O)NCc1ccc(S(=O)(=O)N/N=C/c2ccc(N(C)C)cc2)cc1 the results were N370S GC mod -20% and TDP1 block 8%.
Screening c1coc(-c2ccnc(-n3cccc3)n2)c1 returned N370S GC mod -1% and TDP1 block -6%.
Screening CCn1cc(C(=O)NCC2CCCO2)c(=O)c2cc(S(=O)(=O)N(C)C)ccc21 (centres undefined) returned N370S GC mod -10% and TDP1 block -3%.
CCOC(=O)N1CCc2c(sc3c2c(=O)n(Cc2ccccc2)c(=O)n3Cc2ccc(C)cc2)C1 was read as N370S GC mod 9% and TDP1 block -4%&-1%.
c1ccc(-c2nc(N3CCNCC3)nc3ccccc23)cc1 was read as N370S GC mod 6% and TDP1 block -5%.
`C=C(C)Cn1c(-c2cccc([N+](=O)[O-])c2)n[nH]c1=S` gave N370S GC mod 0% and TDP1 block 0%.
COC(=O)c1ccccc1NC(=O)C1CCCN(S(C)(=O)=O)C1 (centres undefined) was read as N370S GC mod 7% and TDP1 block 7%.
COCCCNC(=O)CCn1c(=O)c2ccccc2n(CC(=O)Nc2cc(Cl)ccc2C)c1=O was read as N370S GC mod 3% and TDP1 block 5%.
Screening Cc1ccc(NS(=O)(=O)c2ccc3c(c2)NC(=O)CCS3)c(C)c1 returned N370S GC mod -13% and TDP1 block 5%.
For COc1ccccc1C/C(N)=N/OC(=O)COc1ccccc1C the results were N370S GC mod 25%.
Screening Cc1ccc(C(CC(=O)N2CCCCC2)c2ccccc2)c(O)c1C (centres undefined) returned N370S GC mod 2%.
COCCOC(=O)C1=C(C)NC2=C(C(=O)CC(c3cccs3)C2)C1c1ccsc1 (centres undefined) was read as N370S GC mod -13% and TDP1 block -1%.
CCOC(=O)c1c(NC(=S)N2CCN(C)CC2)sc(C)c1-c1ccccc1 was read as N370S GC mod inconclusive and TDP1 block 12%.
Screening COCCNC(=O)CCn1nc(-c2ccc(Cl)cc2)c2ccccc2c1=O returned N370S GC mod -10% and TDP1 block -1%.
Cc1oc2ccc(OCc3ccc(Cl)cc3)cc2c1C(=O)O was read as N370S GC mod -5%.
`COc1ccc(CNC(=O)c2cc3cc(OC)ccc3oc2=O)cc1` gave N370S GC mod -6% and TDP1 block -3%.
For CCOc1ccc(Cl)cc1CN1CCOCC1 the results were TDP1 block 2%.
Screening CCCNC(=O)COC(=O)c1ccccc1OCc1ccc(Cl)cc1 returned N370S GC mod -13% and TDP1 block 2%.
Screening CCc1ccc(NC(=O)Cc2ccc(NC3=NC4CS(=O)(=O)CC4S3)cc2)cc1 (centres undefined) returned N370S GC mod 3%.
Screening Cc1ccc(C(=O)NCCNC(=O)Cc2ccccc2)cn1 returned N370S GC mod -16% and TDP1 block 13%.
Screening O=C1CC(C(=O)N2CCc3ccccc32)CN1c1ccc(F)cc1 (centres undefined) returned N370S GC mod 0% and TDP1 block -6%.
`O=C(C1CC1)N1N=C(c2ccc(Cl)cc2)CC1(O)C(F)(F)F` (centres undefined) gave N370S GC mod inconclusive.
For CN(C)S(=O)(=O)NCCNc1ccc(C(F)(F)F)cc1[N+](=O)[O-] the results were N370S GC mod -2% and TDP1 block 8%.
For COc1cccc(CNC(=O)CCCc2cn(C)c3ccccc23)c1 the results were N370S GC mod -12%.
CCS(=O)(=O)c1ccc(N)cc1 was read as N370S GC mod 2% and TDP1 block 9%.
For CCN1CCN(CC(=O)NC2CCCCC2)C(=O)C1=O the results were N370S GC mod -6% and TDP1 block -3%.
`CN(Cc1ccccn1)C(=O)CC1C(=O)NCCN1Cc1cccc(Oc2ccccc2)c1` (centres undefined) gave N370S GC mod 2% and TDP1 block 9%.
`CN(C)S(=O)(=O)c1cccc(C(=O)Nc2cc(S(=O)(=O)N3CCOCC3)ccc2O)c1` gave N370S GC mod 7% and TDP1 block 0%.
For O=C(Nc1ccccc1)C(=O)Nc1ccc2c(c1)N(C(=O)C1CC1)CCC2 the results were N370S GC mod -17% and TDP1 block 4%[0.505 µM].
Screening COC(=O)c1sc(S(=O)(=O)N2CCC(C(=O)O)CC2)c(C(=O)OC)c1C returned N370S GC mod 7% and TDP1 block 1%.
CN(Cc1ccccc1)c1ncc(C=O)s1 was read as N370S GC mod -15% and TDP1 block 3%.
For CCOC(=O)c1c(C)[nH]c(C(=O)COC(=O)/C=C/c2ccc(O)c(OC)c2)c1C the results were N370S GC mod 6% and TDP1 block 3%.
For CNC(=O)CSc1nnc(CCc2ccccc2)n1-c1ccccc1 the results were N370S GC mod -12% and TDP1 block 7%.
`Cc1cc(C(=O)NC2=NCCS2)cs1` gave N370S GC mod -3% and TDP1 block 0%.
Screening Cc1sc(N)nc1-c1ccc(Oc2ccccc2)cc1 returned N370S GC mod -2% and TDP1 block 10%.
N#Cc1c(-c2ccc(Cl)cc2)ccn2nc(C3CCCCC3)nc12 was read as N370S GC mod 25% and TDP1 block 0%.
For Cc1ccc(C(=O)NC2CCN(CC(=O)Nc3cccc([N+](=O)[O-])c3)CC2)cc1 the results were N370S GC mod -4% and TDP1 block 2%.
Screening COCCN=c1scc(-c2ccc3c(c2)NC(=O)CO3)n1/N=C(\C)c1ccc(O)cc1 returned N370S GC mod -25% and TDP1 block 12%.
For CC(NC(=O)Nc1ccc(F)cc1)C(c1cccs1)N1CCCC1 (centres undefined) the results were N370S GC mod -15% and TDP1 block -3%.
Screening COc1ccc(C(=O)N[C@H](C(=O)OCc2cc(=O)oc3cc(C)ccc23)C(C)C)cc1 returned N370S GC mod -20% and TDP1 block 0%.
For Cc1cc2c(=O)n(C)c(SCC(=O)Nc3ccccc3)nc2s1 the results were N370S GC mod 1% and TDP1 block -12%.
`COc1cc2c(cc1OC)/C(=C/C(=O)c1ccc(NC(C)=O)cc1)NCC2` gave N370S GC mod -19%.
Screening NS(=O)(=O)c1cccc(NC(=O)CSc2ccccn2)c1 returned N370S GC mod 4% and TDP1 block 2%.
Screening COc1ccccc1N/N=C(\C#N)C(=N)N1CCOCC1 returned N370S GC mod -6% and TDP1 block 4%.
CSc1ccc(S(=O)(=O)NCC(=O)OCC(=O)N(C)Cc2ccccc2)cc1[N+](=O)[O-] was read as N370S GC mod -5%.
`O=C(Nc1ccccc1)C1=C(O)CC(c2ccco2)CC1=Nc1ccccc1` (centres undefined) gave N370S GC mod 6% and TDP1 block -5%.
`CC(NC(=O)C1CCN(S(=O)(=O)N2CCC3(CC2)OCCO3)CC1)c1ccccc1` (centres undefined) gave N370S GC mod 17% and TDP1 block 0%.
For CCOC(=O)c1ccc(S(=O)(=O)NNC(=O)c2ccc3c(c2)nc(C)n3CC)cc1 the results were N370S GC mod 1% and TDP1 block -3%.
`CC(=O)Oc1c(/C=C(\C#N)C(N)=O)[nH]c2ccccc12` gave N370S GC mod 28% and TDP1 block 1%.

Molecules above that contain a thiophene ring, fused or not (nine):
c1cc(-c2cccs2)nc(-c2cccs2)c1 was read as N370S GC mod 2%.
Screening CCc1nc(SCC(=O)N2c3ccccc3CC2C)c2c(C)c(C)sc2n1 (centres undefined) returned N370S GC mod 18% and TDP1 block 1%.
CCOC(=O)N1CCc2c(sc3c2c(=O)n(Cc2ccccc2)c(=O)n3Cc2ccc(C)cc2)C1 was read as N370S GC mod 9% and TDP1 block -4%&-1%.
COCCOC(=O)C1=C(C)NC2=C(C(=O)CC(c3cccs3)C2)C1c1ccsc1 (centres undefined) was read as N370S GC mod -13% and TDP1 block -1%.
CCOC(=O)c1c(NC(=S)N2CCN(C)CC2)sc(C)c1-c1ccccc1 was read as N370S GC mod inconclusive and TDP1 block 12%.
Screening COC(=O)c1sc(S(=O)(=O)N2CCC(C(=O)O)CC2)c(C(=O)OC)c1C returned N370S GC mod 7% and TDP1 block 1%.
`Cc1cc(C(=O)NC2=NCCS2)cs1` gave N370S GC mod -3% and TDP1 block 0%.
For CC(NC(=O)Nc1ccc(F)cc1)C(c1cccs1)N1CCCC1 (centres undefined) the results were N370S GC mod -15% and TDP1 block -3%.
For Cc1cc2c(=O)n(C)c(SCC(=O)Nc3ccccc3)nc2s1 the results were N370S GC mod 1% and TDP1 block -12%.

This is a subset, and most or all hits are left out here.
